# Bioassay records as filed in PubChem BioAssay.
# KCNQ2 inh: KCNQ2 potassium channel inhibitors, primary screen, cell-based, CHO-K1, FluxOR thallium flux, B-score (AID 2156) | actives 1.1% (n = 310,000) | 20 min; active compounds read low; only compounds with negative scores are shown here; some inactives read as strong as hits | B-score at 10 µM;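 active means fluorescence ratio B-score at most minus 3 library SDs, with starting brightness B-score within 2 library SDs, cut at about -5.5 in these data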
# Target sequence (O88943 whole entry, looked up): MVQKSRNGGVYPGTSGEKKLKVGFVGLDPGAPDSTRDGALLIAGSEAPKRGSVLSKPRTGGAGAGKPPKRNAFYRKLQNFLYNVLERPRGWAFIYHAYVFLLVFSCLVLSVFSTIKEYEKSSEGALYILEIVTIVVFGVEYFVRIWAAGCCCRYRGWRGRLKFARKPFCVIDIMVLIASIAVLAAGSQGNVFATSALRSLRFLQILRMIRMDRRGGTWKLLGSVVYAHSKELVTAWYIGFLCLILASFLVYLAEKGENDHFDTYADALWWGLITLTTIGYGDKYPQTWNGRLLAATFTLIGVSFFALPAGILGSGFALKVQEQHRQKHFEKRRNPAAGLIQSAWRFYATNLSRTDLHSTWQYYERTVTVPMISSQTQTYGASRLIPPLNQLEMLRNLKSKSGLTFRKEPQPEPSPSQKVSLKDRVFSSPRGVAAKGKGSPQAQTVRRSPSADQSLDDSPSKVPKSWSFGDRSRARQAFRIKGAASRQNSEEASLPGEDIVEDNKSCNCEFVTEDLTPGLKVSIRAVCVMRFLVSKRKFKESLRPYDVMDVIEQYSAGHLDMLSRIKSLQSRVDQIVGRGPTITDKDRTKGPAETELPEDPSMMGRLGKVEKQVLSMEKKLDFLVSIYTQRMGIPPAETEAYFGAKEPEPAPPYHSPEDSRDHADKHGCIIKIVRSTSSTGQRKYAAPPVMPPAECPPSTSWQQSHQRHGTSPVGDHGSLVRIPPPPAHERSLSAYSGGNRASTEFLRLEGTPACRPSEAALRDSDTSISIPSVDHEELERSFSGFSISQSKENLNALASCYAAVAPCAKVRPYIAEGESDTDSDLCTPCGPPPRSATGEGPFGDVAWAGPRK
# KCNQ2 inh baseline: further read-out of KCNQ2 inh, marked with its call; B-score; measured here: initial fluorescence intensity artifact check;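 brightness before thallium and not channel activity; 0 = typical well and far values either way flag optical interference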
# An asterisk follows results filed as active; i = inactive.
molecule,KCNQ2 inh,KCNQ2 inh baseline
Cc1cc(C)c(/C([O-])=C(/C(=S)Nc2ccc(SC(F)F)cc2)[n+]2ccccc2)cc1C,i,0.83
COc1ccc(OCC(=O)C2CC2)c(C#N)c1,i,1.1
N/C(=N\OC(=O)Nc1ccccc1)c1ccno1,i,0.6
O=C(C1CCCN(Cc2ccccc2[N+](=O)[O-])C1)N1CCCC1 (configuration not stated),i,0.39
COc1ccc(C)cc1S(=O)(=O)N1CCCC(C(=O)N2CCN(c3ccccc3F)CC2)C1 (configuration not stated),i,0.01
CCOc1ccc(CCNC(=O)COC(=O)Cn2cnc3ccccc3c2=O)cc1OCC,i,-0.43
COc1ccc(NC(=O)CSCC(=O)Nc2nnc(C)s2)cc1,i,-0.93
CCOC(=O)c1ccccc1NC(=O)CN1CCC(n2nnc3cc(C(F)(F)F)ccc32)CC1,i,0.01
Cc1cc(C)cc(N(CC(=O)N2CCN(Cc3ccccc3)CC2)S(=O)(=O)c2c(C)noc2C)c1,i,-0.24
O=C(NNC(=S)NCc1ccccc1)c1ccc(Br)o1,i,1
O=C(CCC(=O)Nc1ccccc1)NCCO,i,0.55
Cc1ccc(NS(=O)(=O)c2cccc(C(=O)N(C)Cc3cccs3)c2)cc1,i,-0.88
COc1cccc(-n2nnnc2SCC(=O)Nc2ccc3c(c2)OCCO3)c1,i,-1
CCS(=O)(=O)C1=NN2C(=N)/C(=C\c3ccc(OCCOc4cccc(OC)c4)c(OC)c3)C(=O)N=C2S1,i,-0.86
CC1CCN(c2nc(-c3ccc(F)cc3)cc(C(F)(F)F)n2)CC1,i,3
CCOc1ccc(C(=O)Nc2sc3c(c2C(=O)OC)CC(C)(C)NC3(C)C)cc1,i,-0.5
CCOc1ccc2nc(SCc3ccccc3C#N)sc2c1,i,-0.53
CCN1C(=O)c2cccc3c(NS(=O)(=O)c4ccc(NC(C)=O)cc4)ccc1c23,i,-0.15
COCCNc1nc(-c2cc(C)c(C)cc2C)cs1,i,0.91
CCN(CC)C(=O)Cn1c(=O)c2ccccc2n2c(=S)sc(-c3cccc(C)c3)c12,i,3.7
COc1cccc(NC(=S)NCCc2ccccn2)c1,i,-0.01
Cn1c(=O)c2c(nc(SCC(=O)NC34CC5CC(CC(C5)C3)C4)n2C)n(C)c1=O,i,-0.07
CCc1ccccc1N(C(=O)CCC(=O)Nc1cc(C)on1)C(C(=O)NC1CCCC1)c1ccco1 (configuration not stated),i,-0.44
COc1cccc(NC(=O)c2ccc(CN3CCOCC3)cc2)c1,i,-0.01
COc1ccc(C2/C=C\CN(C(=O)C3CCCCC3)CC(=O)N2Cc2ccc(F)cc2)cc1 (configuration not stated),i,0.21
CCOC(=O)COc1cccc2c(=O)n(CC(=O)N3CCc4ccccc43)ccc12,i,0.16
CN(C)CCCN(C(=O)c1ccc2c(c1)CCCC2)c1nc2cc3c(cc2s1)OCO3,i,-0.22
NC(=O)c1c(NC(=O)c2ccccc2)sc2c1CCc1ccccc1-2,i,0.24
O=C(NCc1ccccc1C(F)(F)F)C1CC(c2ccccc2C(F)(F)F)=NO1 (configuration not stated),i,-0.09
CC(NC(=O)c1cc(-c2ccccc2)on1)c1ccccc1 (configuration not stated),i,0.25

molecule,KCNQ2 inh,KCNQ2 inh baseline
CCc1ccccc1NC(=S)N1CCC(C(=O)c2ccc(F)cc2)CC1,i,1.2
Cc1c(C(=O)N(CC(C)C)c2c(N)n(Cc3ccccc3)c(=O)[nH]c2=O)sc2nc3n(c(=O)c12)CCC3,i,0.51
Cc1ccccc1CNC(=O)CCC(=O)N1CCOc2ccc(Cl)cc21,i,-0.25
COc1ccc(N(CC(=O)Nc2cc(Cl)ccc2OC)S(=O)(=O)c2c(C)noc2C)cc1,i,0.08
COc1ccc(-c2noc(CNC(=O)C(C)Oc3ccccc3)n2)cc1 (configuration not stated),i,-0.43
COC(=O)c1ccc(NC(=O)C(=O)c2c[nH]c3ccccc23)cc1,i,-0.04
O=C(NCC1CCCN(Cc2cccc(C(F)(F)F)c2)C1)c1ccc(F)cc1 (configuration not stated),i,0.52
CCOC(=O)Nc1ccc(S(=O)(=O)Nc2nccc(C)n2)cc1,i,-0.53
CCOC(=O)CCNC(=O)N1CCC(CCC(=O)NCc2ccc(F)cc2)CC1,i,-0.21
CC(C)COP(=O)(CNC(=O)CN1C(=O)c2ccccc2S1(=O)=O)OCC(C)C,i,-0.29
Cc1ccc(C)c(S(=O)(=O)NCCN2CCOCC2)c1,i,1.3
Cc1ccc(N(C(=O)c2cccs2)C2C=CS(=O)(=O)C2)cc1 (configuration not stated),i,0.01
CCOc1ccccc1C(=O)N/N=C/c1ccoc1,i,-0.85
Cc1nnc(NC(=O)CSc2nnc(Cc3ccccc3)n2-c2ccccc2)s1,i,0.6
CCCCN(CC)CCNC(=O)c1cn(C)c(=O)c2c1c1ccccc1n2C,i,0.13
Cc1ccc(-n2c(C)cc(/C=C3/SC(=O)N(CC(=O)N4CCOCC4)C3=O)c2C)nc1,i,-0.84
CNC(=O)c1cc(C(=O)c2ccc(C(F)(F)F)cc2)c[nH]1,i,-0.09
N=c1c(S(=O)(=O)c2ccc(Cl)cc2)cc2c(=O)n3ccccc3nc2n1Cc1cccnc1,i,2.6
CC(C)NC(=O)c1ccc(COc2cc(Cl)ccc2Cl)o1,i,-0.01
Cc1cc(C(=O)N2CCCC(N3CCN(c4ccccc4C)CC3)C2)nc(C)n1 (configuration not stated),i,-0.1
O=C(O)C1=NN(c2ccccc2)C(=O)C1,i,0.88
CC1(C)Cc2c(sc3nc(C4CC4)n(N)c(=O)c23)CO1,i,0.86
COC(=O)c1ccccc1-c1ccc(/C=N/NC(=O)c2cc3ccccc3o2)o1,i,-1.4
CC(C)c1nnc(NC(=O)CCCC(=O)O)s1,i,1.1
CCCCSc1nc(C(=O)O)cc(=O)[nH]1,i,-0.51
CCOC(=O)N1CCN(CC(O)COc2cc(C)cc(C)c2)CC1 (configuration not stated),i,0.19
COCc1c(C(=O)OC/C(O)=C(\C#N)c2nc3ccccc3[nH]2)oc2ccccc12,i,0.13
Cc1nc(COC(=O)c2c(C)nn(-c3ccccc3)c2C)cs1,i,0.04
Cc1ccc2oc(=O)c3cc(C(=O)NCCN4CCN(C)CC4)sc3c2c1,i,-2.1
S=c1[nH]nc(C2CC2)n1Cc1ccccc1,i,-0.08

molecule,KCNQ2 inh,KCNQ2 inh baseline
c1ccn(-c2ccc(N3CCOCC3)cc2)c1,i,-1.1
CCN1CCC(=NNC(=O)c2ccco2)CC1,i,0.04
CN1C(C(=O)NCc2cccc(C(F)(F)F)c2)CC2Cn3c(nc4cc5ccccc5cc43)C21 (configuration not stated),i,1.7
O=[N+]([O-])c1cccc(/C=C/c2nc3ccc([N+](=O)[O-])cc3[nH]2)c1,-8.1*,-2*
Cc1ccc(-c2nn(-c3ccccc3)cc2CSC(=N)N)cc1,i,0.09
O=C(Nc1ccc2oc(-c3ccncc3)nc2c1)c1ccc([N+](=O)[O-])o1,i,0.32
O=S1(=O)c2ccccc2N=NN1Cc1ccc(Cl)c(Cl)c1,i,-2.8
CC(C(=O)NC1CCCc2ccccc21)N1CCN(c2ccc(F)cc2)CC1 (configuration not stated),i,0.26
CCS(=O)(=O)N1CCN(C(=O)c2cccc(OC)c2)CC1,i,0.01
O=C(O)CN1CCN(Cc2ccccc2Cl)C1=O,i,-0.84
Cc1cc(C(=O)NCc2ccc(S(N)(=O)=O)cc2)ccc1[N+](=O)[O-],i,-0.55
O=C(CN1C(=O)CSC1=O)Nc1ccc(C(=O)O)cc1,i,0.91
COc1cccc(C(=O)N(Cc2ccc(N(C)C)cc2)C2CCS(=O)(=O)C2)c1 (configuration not stated),i,-0.58
CC(C)(C)NCc1cc(Br)ccc1OC1CCCC1,i,1.4
Cc1ccc(OCC(=O)NNC(=O)C(C)Sc2ncnc3sc(C)c(C)c23)cc1 (configuration not stated),i,2.1
Cc1onc(-c2c(F)cccc2Cl)c1C(=O)Nc1nc2ccccc2[nH]1,i,-0.84
COCCn1nnnc1CN(CCc1ccccc1)Cc1cc2ccc(C)cc2[nH]c1=O,i,0.36
CC(C)N(Cc1cn(C)nc1-c1cccc(Cl)c1)Cc1nccn1C,i,-0.31
O=C(Nc1ccc(NC(=O)C2CCCCC2)nc1)c1cccc(F)c1,i,-2.1
CC(NC(=O)c1cc2c(s1)CS(=O)(=O)C2)c1ccccc1 (configuration not stated),i,1
Cc1cccc(N(C(=O)c2csnn2)C(C(=O)NC(C)(C)C)c2cccs2)c1 (configuration not stated),i,-1.6
COc1ccccc1N1CCN(C(=O)CCCn2nc(C)c([N+](=O)[O-])c2C)CC1,i,-1.5
CN(C)c1cccc(NC(=O)CCc2ccccc2)c1,i,-2.7
CC(=O)c1cccc(-n2c(CCC(=O)O)ccc2-c2ccc(C)cc2)c1,i,-1.6
Cc1ccc(N/C(CSC(N)=O)=N\S(=O)(=O)c2ccc(C)cc2)cc1,i,0.84
CC1(C)CC(C(=O)Nc2ccccc2)C(=O)O1 (configuration not stated),i,0.4
CN(C)c1nc(N)nc(CSc2nnnn2-c2ccc(F)cc2)n1,i,0.56
CC(C)c1nc(SCC(=O)Nc2ccc(C(=O)O)cc2)c2c3c(sc2n1)CCCC3,i,-1.8
Cc1ccc(N(CC(=O)NCc2ccccc2)C(=O)CCC(=O)Nc2ccccn2)cc1,i,-0.07
Cc1ccccc1-c1ccc(C(=O)Nc2cccc(F)c2)o1,i,-0.5

molecule,KCNQ2 inh,KCNQ2 inh baseline
CC(C)CCC(=O)N1CCC(N2CCC(C(=O)NCc3ccccn3)CC2)CC1,i,-0.1
CCOC(=O)CCSc1nnc(-c2cccnc2)n1-c1ccccc1OC,i,-1.6
COc1ccc(N(C)C(=O)CC2(CC(=O)O)CCCCC2)cc1,i,0.06
CCOC(=O)CSc1ncnc2c1c(-c1ccccc1)cn2-c1ccc(OC)cc1,i,-2.1
CCOc1cc(/C=N/NC(=O)c2ccc(CSc3nncn3C)cc2)ccc1OCC(=O)N1CCOCC1,i,2.4
c1ccc2c(c1)NC1(CCCCCC1)n1c-2nc2ccccc21,i,0.01
CC(C)(C)N(C=C(Cl)Cl)C(=O)NC1CCCCC1,i,1.3
Cc1cccc(OCC(=O)NCc2ccc(F)cc2)c1,i,0.93
Cc1sc2c(c1C)C(=O)NC(c1cccc(O)c1)N2 (configuration not stated),i,0.48
CCN(c1cccc(C)c1)S(=O)(=O)c1cc2c3c(c1)CCN3C(=O)CC2,i,-0.05
CCc1ccc(-c2cc(C)no2)cc1S(=O)(=O)N1CCN(c2ccccc2OC)CC1,i,0.18
C=CCN(c1ccccc1)S(=O)(=O)c1cccc(C(=O)N2CCCC2)c1,i,-2.1
Cc1ccc(Cl)cc1NC(=O)Cn1cc2c(n1)CCCC2,i,0.02
Cc1ccc(N=Cc2c(O)n(C)c(=O)n(C)c2=O)nc1,i,2
CC(C)Cn1c(N)c(C(=O)COC(=O)Cc2cccc(C(F)(F)F)c2)c(=O)n(C)c1=O,i,-0.85
CCOC(=O)c1ccc(N2CCCCC2)c(NS(=O)(=O)c2ccc(C)cc2)c1,-7.3*,-0.48*
COc1ccc(C[C@H]2CN3C(=NC[C@@H]3Cc3ccc(O)cc3)N2C[C@H](C)NC(=O)c2ccc(C)c(Br)c2)cc1,i,-1.4
CC1CCN(C(C(=O)Nc2ccc(C(C)C)cc2)c2ccc3c(c2)OCO3)CC1 (configuration not stated),i,0.82
CCCCn1c(N)c(N(CCC(C)C)C(=O)CN2C(=O)C3CCCCC3C2=O)c(=O)[nH]c1=O (configuration not stated),i,-0.24
COc1cc(C(=S)N2CCN(C)CC2)ccc1OCC(=O)NCc1ccccc1,i,0.81
Cc1ccnc(NC(=O)CSc2nnc3c(n2)[nH]c2ccccc23)c1,i,-2
CCN1C(=O)N/C(=C/c2ccc(Sc3ccc(C)cc3)o2)C1=O,i,2
CS(=O)(=O)Nc1ccc(C2=NN(S(C)(=O)=O)C(c3ccccc3)C2)cc1 (configuration not stated),i,0.27
O=C(COc1ccccc1)NCCc1cn2ccsc2n1,i,-1.2
Cc1[nH]ccc(=O)c1OCc1c(Cl)cccc1Cl,i,-0.8
Cc1ccnc(NC(=O)C2CCCN(S(=O)(=O)c3ccc4[nH]c(=O)ccc4c3)C2)c1 (configuration not stated),i,1.2
O=C(NCc1ccc2c(c1)OCO2)c1nc(S(=O)(=O)Cc2ccccc2)ncc1Cl,i,-0.39
O=C(Cc1cccc(C(F)(F)F)c1)N1CCCC1,i,0.09
C=CCN1C=CC(=CC=C(C#N)C#N)C=C1,i,7
Cc1ccc(-c2cc3nc(-c4ccccc4)cc(N)n3n2)cc1,i,0.19

# 2 records drawn at random from the list so far:
molecule,KCNQ2 inh,KCNQ2 inh baseline
O=[N+]([O-])c1cccc(/C=C/c2nc3ccc([N+](=O)[O-])cc3[nH]2)c1,-8.1*,-2*
COc1ccc(NC(=O)CSCC(=O)Nc2nnc(C)s2)cc1,i,-0.93

# 6 entries out of the list above, sorted by the number in KCNQ2 inh baseline, ascending:
molecule,KCNQ2 inh,KCNQ2 inh baseline
Cc1cccc(N(C(=O)c2csnn2)C(C(=O)NC(C)(C)C)c2cccs2)c1 (configuration not stated),i,-1.6
COc1ccccc1N1CCN(C(=O)CCCn2nc(C)c([N+](=O)[O-])c2C)CC1,i,-1.5
CCN(c1cccc(C)c1)S(=O)(=O)c1cc2c3c(c1)CCN3C(=O)CC2,i,-0.05
COc1ccc(N(C)C(=O)CC2(CC(=O)O)CCCCC2)cc1,i,0.06
CS(=O)(=O)Nc1ccc(C2=NN(S(C)(=O)=O)C(c3ccccc3)C2)cc1 (configuration not stated),i,0.27
O=C(NNC(=S)NCc1ccccc1)c1ccc(Br)o1,i,1

# An excerpt; the hit share may differ from the screen's.
